Compound activity as filed in PubChem.
miR-21 FLuc – raises the signal of a miR-21 reporter; Potency, µM (highest dose often 38.3 µM), for the others: at the highest dose reporter change, positive = more light; HeLa miR-21 FLuc reporter, luciferase, 48 h; AID 2288; 340,000 tested, under 10 active; active = well fitted rising curve with a large enough effect; inconclusive = small, poorly fitted or top-dose-only effect; inactive = no such curve, though single readings can be large or run the other way;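 note: % of control where 0% means no effect; miR-21 action dims this reporter so a rising signal means less miR-21 action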
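HeLa cells endogenously expressing miR-21, stably carrying CMV-driven firefly luciferase with a downstream miR-21 binding site, 2000 cells/well. Titrations up to approximately 40 uM, 48 hours; luciferase luminescence read.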
GLA inh pH 4.5 – blocks human alpha-galactosidase A at pH 4.5. P06280. purified enzyme, 4-MU-alpha-Gal fluorescence, pH 4.5. activity change, negative = inhibition, % at 105 µM. 230,000 tested, under 10 active; inconclusive = small, poorly fitted or top-dose-only inhibition, or a rising curve; inactive = flat fitted curve, though single readings scatter; no compound was filed as active;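 note: 0% = full activity with enzyme and -100% = basal without enzyme; dose as in the result columns while the protocol names 77 µM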
Rango complex inh – prevents formation of the Rango-importin beta complex; Rango CFP/YFP FRET sensor + importin beta, 45 min; Potency, µM (series often up to 92.2 µM), for the others: at the top dose inhibition of complex formation; actives 0.031% (n = 340,000); AID 540263; active = rising FRET ratio curve, often small or poorly fitted; inconclusive = mostly compound fluorescence or quenching in the first reads; inactive = flat curves in all reads;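 note: potency is the fitted concentration of half-maximal effect; 0% = DMSO wells and 100% = buffer wells lacking importin beta; nearly all actives have a fitted effect of over 15% in size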
Target sequence (Q14974 whole entry, looked up): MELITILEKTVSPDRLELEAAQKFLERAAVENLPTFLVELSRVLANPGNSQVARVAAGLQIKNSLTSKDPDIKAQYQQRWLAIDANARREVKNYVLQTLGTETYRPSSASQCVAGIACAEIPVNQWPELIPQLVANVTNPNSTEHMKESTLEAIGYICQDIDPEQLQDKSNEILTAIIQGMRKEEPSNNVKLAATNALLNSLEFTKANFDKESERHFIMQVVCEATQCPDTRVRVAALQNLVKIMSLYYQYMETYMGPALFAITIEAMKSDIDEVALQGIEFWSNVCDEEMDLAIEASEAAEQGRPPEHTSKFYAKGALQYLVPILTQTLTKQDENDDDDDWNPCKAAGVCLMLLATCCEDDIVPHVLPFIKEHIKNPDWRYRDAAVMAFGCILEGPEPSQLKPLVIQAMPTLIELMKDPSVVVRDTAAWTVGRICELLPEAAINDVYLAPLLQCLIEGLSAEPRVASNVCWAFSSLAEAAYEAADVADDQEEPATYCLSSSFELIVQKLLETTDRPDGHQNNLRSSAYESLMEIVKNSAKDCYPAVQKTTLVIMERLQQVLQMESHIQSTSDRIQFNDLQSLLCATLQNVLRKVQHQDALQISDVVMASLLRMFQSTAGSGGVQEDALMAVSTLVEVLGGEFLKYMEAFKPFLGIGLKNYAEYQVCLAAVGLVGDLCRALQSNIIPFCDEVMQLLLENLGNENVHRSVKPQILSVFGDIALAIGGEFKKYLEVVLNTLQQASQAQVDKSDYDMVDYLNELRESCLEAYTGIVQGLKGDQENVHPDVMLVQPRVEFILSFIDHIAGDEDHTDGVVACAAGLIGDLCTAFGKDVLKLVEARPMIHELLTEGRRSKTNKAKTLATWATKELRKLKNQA
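Inhibition scored from the CFP 486 nm/YFP 530 nm FRET ratio 45 min after adding 0.125 microM importin beta to 50 nM Rango biosensor preincubated 5 min with compound (room temperature, PBS with DTT, Tween-20, BSA). No-importin wells as positive control.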
Rango release inh – inhibition of RanGTP-driven Rango-importin beta dissociation; Biochemical FRET Rango-importin beta, RanGTP-induced dissociation; O95149+P62826; Potency, µM (top dose mostly 46.1 µM), for inactives: top-dose activity change, negative = inhibition; actives 0.071% (n = 340,000); active means falling FRET ratio curve, often poorly fitted, with flat reads before Ran was added; inconclusive means other falling curves, or compound fluorescence or quenching; inactive means flat or rising ratio curve;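 note: potency is the fitted concentration of half-maximal effect; % of control where 0% means no effect; nearly all actives have a fitted effect of over 45% in size; -100% = wells without RanGTP and RCC1; the record marks most hits as doubtful in a second field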
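Rango/importin beta premix (0.1/0.25 uM final), PBS + 1 mM DTT + 0.02% Tween-20 + 0.1% BSA; cpd 5 min RT; FRET pre-read; + RanGTP-RCC1 (0.6 uM Ran, 2 mM GTP, 0.2 uM RCC1); 45 min RT; FRET post-read, ex 430, em 486/530 nm.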
The depositor's hits bear a star; ? = inconclusive; / = no result given; & = joins results of further samples. These rows are one share of the data (hit frequency here may not be typical).

smiles	miR-21 FLuc	GLA inh pH 4.5	Rango complex inh	Rango release inh
CC(C)(C)C(=O)O[C@H]1CC[C@@]2(C)C(=CC(=O)C3C2CC[C@]2(C)C(=O)[C@@H](F)CC32)C1 (stereo partly drawn)	/	/	-2.0%	-7.2%
Cc1ccc(N2C(=O)CC(=O)NC2=O)cc1Cl	-3.8%	/	-3.5%	-1.7%
O=C1C2CCCN2C(c2ccccc2)N1c1ccccn1 (stereo not drawn)	0.6%	-28.5	-1.0%	2.3%
COC(=O)Cn1cc(C(=O)c2ccccc2F)c2ccccc21	-0.7%	/	-3.9%	-2.2%
O=C1NC(=O)C2(Cc3ccccc3N3CCCC32)C(=O)N1c1ccccc1 (stereo not drawn)	1.2%	3.5	?	?
COC(=O)C1=C(c2ccc(S(C)(=O)=O)cc2)C[C@@H]2CC[C@H]1N2C(=O)N1CCCC1	/	/	1.1%	1.6%
CCCCCn1cc(C(=O)C(=O)N2CCOCC2)c2ccccc21	0.0%	/	0.1%	15.4%
CN(C)c1ccc(/C=C/c2cc[n+](C)c3ccccc23)cc1	?	1.4	?	7.6%&-7.9%
O=c1[nH]c(O)c(C=Nc2ccccc2[N+](=O)[O-])c(=O)[nH]1	1.3%	-0.9	/	/
Cc1c(C=O)c2ccccc2n1Cc1ccccc1F	-1.5%	5.6	-0.4%	9.1%
COc1ccc(CN2C(=O)NC(=O)/C(=C\c3ccc(OC)c(OC)c3OC)C2=O)cc1	-0.7%	-3.5	-0.4%	-16.0%
COc1ccc(-n2c(O)c(C(C)=NC3CC3)c(=O)[nH]c2=O)cc1	-1.4%	0.0	2.4%	1.6%
CNCC(O)c1cc(OCc2ccccc2)c(OCc2ccccc2)cc1F (stereo not drawn)	/	/	-3.7%	0.3%
c1ccc(OCC2CO2)cc1 (stereo not drawn)	/	/	2.7%	22.0%
Cn1cccc1CNCCc1ccc(F)cc1	-9.4%	-13.9	1.3%	8.9%
CCOC(=O)c1c(NC(=O)C(c2ccccc2)c2ccccc2)sc2c1C1CCN2CC1	28.2%	-4.1	2.9%	-10.4%
CC1CN=C(NCc2ccncc2)S1 (stereo not drawn)	-1.3%	4.0	0.7%	-8.8%
COc1ccc(-c2nc3ccccc3c(=O)n2-c2ccc(OC)cc2)cc1	-10.8%	-3.1	-1.3%	-0.3%
CN(C)C(=O)Nc1cccc(OC(=O)N(C)C)c1	-9.0%	-3.9	?	-5.6%
CC(=NCCc1ccccc1)c1c(O)[nH]c(=O)[nH]c1=O	-17.8%	1.7	1.1%	3.4%
CC(=NCc1ccco1)c1c(O)n(C)c(=O)n(C)c1=O	2.8%	9.1	-1.3%	17.2%
COc1ccccc1Sc1ccccc1CC(C)N (stereo not drawn)	1.2%	1.8	0.4%	0.0%
O=S(=O)(c1ccc(Cl)cc1)N1CN2CCN(C2)C1	-1.4%	-0.1	0.4%	-4.5%
COc1ccc(OCC(=O)N2CCN(Cc3nc4cc([N+](=O)[O-])ccc4n3C)CC2)cc1	-0.2%	-0.1	0.7%	-9.7%
COC(=O)[C@]12OC[C@]34C([C@@H](O)[C@@H]1O)[C@]1(C)CC(=O)C(O)=C(C)[C@@H]1C[C@H]3OC(=O)[C@H](O)[C@@H]24 (stereo partly drawn)	?	-0.3	0.0%	45.2%
COc1ccc(N2C(=O)/C(=C/c3ccc(OC)c(OC)c3)C(=O)NC2=S)cc1	-0.3%	/	-0.6%	7.3%
Cn1c(=O)[nH]c2nncnc2c1=O	/	/	0.1%	26.9%
O=C(c1ccc(F)cc1Cl)N1CCC2(CC1)OCCO2	1.5%	/	4.3%	13.3%
COc1cccc(N(C(C)=O)C2=NCCCS2)c1	-2.0%	/	-1.7%	6.2%
COc1ccccc1OCC#CCN1CCOCC1	-4.4%	1.9	-0.5%	6.4%

Of the compounds above, these contain an NH in an aromatic ring:
smiles	miR-21 FLuc	GLA inh pH 4.5	Rango complex inh	Rango release inh
O=c1[nH]c(O)c(C=Nc2ccccc2[N+](=O)[O-])c(=O)[nH]1	1.3%	-0.9	/	/
COc1ccc(-n2c(O)c(C(C)=NC3CC3)c(=O)[nH]c2=O)cc1	-1.4%	0.0	2.4%	1.6%
CC(=NCCc1ccccc1)c1c(O)[nH]c(=O)[nH]c1=O	-17.8%	1.7	1.1%	3.4%
Cn1c(=O)[nH]c2nncnc2c1=O	/	/	0.1%	26.9%

Record cards, as listed above. Order of values: miR-21 FLuc | GLA inh pH 4.5 | Rango complex inh | Rango release inh
`COc1ccc(N2C(=O)/C(=C/c3ccc(OC)c(OC)c3)C(=O)NC2=S)cc1` is listed as -0.3% | / | -0.6% | 7.3%
`COc1ccc(OCC(=O)N2CCN(Cc3nc4cc([N+](=O)[O-])ccc4n3C)CC2)cc1` is listed as -0.2% | -0.1 | 0.7% | -9.7%
`COC(=O)[C@]12OC[C@]34C([C@@H](O)[C@@H]1O)[C@]1(C)CC(=O)C(O)=C(C)[C@@H]1C[C@H]3OC(=O)[C@H](O)[C@@H]24` (stereo partly drawn) is listed as ? | -0.3 | 0.0% | 45.2%
`CC(=NCc1ccco1)c1c(O)n(C)c(=O)n(C)c1=O` is listed as 2.8% | 9.1 | -1.3% | 17.2%
`COc1cccc(N(C(C)=O)C2=NCCCS2)c1` is listed as -2.0% | / | -1.7% | 6.2%

Carrying on:
smiles	miR-21 FLuc	GLA inh pH 4.5	Rango complex inh	Rango release inh
O=C(Nc1ccc(Cl)cc1C(=O)c1ccccc1)c1ccccc1	-3.2%	-20.4	6.7%	-0.9%
CCN(CC)CCCOC(=O)C(OC(C)C)(c1ccccc1)c1ccccc1	-6.6%	-13.4	2.6%	3.7%
CNC(=O)CSP(=S)(OC)OC	/	-0.7	-1.5%	10.7%
COc1ccc(N=Cc2c(O)n(-c3ccc(C)cc3)c(=O)[nH]c2=O)cc1	0.1%	11.9	?	-0.5%
CCOC(=O)c1cc(CC)sc1/N=C/c1c(O)[nH]c(=S)[nH]c1=O	-9.9%	5.0	?	-26.0%
CCN1C(=O)C(=Cc2ccc(N3CCOCC3)o2)C(=O)N(CC)C1=S	1.1%	-3.5	?	0.2%
O=CNc1ccc(OP(=O)(Oc2ccccc2)Oc2ccccc2)cc1	4.0%	/	2.7%	-4.1%
COc1ccc(C(=O)Cn2c(NCCCl)nc3ccccc32)cc1	-8.4%	/	0.0%	-0.1%
O=c1[nH]c(=O)n(CCc2ccccc2)c(O)c1C=NCCCn1ccnc1	-8.4%	2.4	-1.2%	4.4%
O=C1NC(=O)N(c2ccccc2)C(=O)/C1=C/c1ccc([N+](=O)[O-])s1	-1.3%	-20.3	?	-18.2%
O=C(CCN1CCCCC1)Nc1ccc(Br)cc1C(=O)c1ccccc1	-4.7%	/	-8.9%	-11.1%
Cc1cc(C(=O)CS(=O)(=O)c2ccc(F)cc2)cc(C)c1OC(=O)N(C)C	-55.2%	10.6	-0.2%	-2.4%
COc1ccc(C(=O)O/N=C(/C(N)=O)P(=O)(OC(C)C)OC(C)C)cc1	0.6%	7.4	-0.1%	-3.6%
COc1cccc(C(=O)C2CCCN(Cc3cnn(C(C)C)c3)C2)c1 (stereo not drawn)	-3.4%	2.4	-7.0%	-14.1%
O=C(O)C1CN2CCC1CC2 (stereo not drawn)	-0.1%	0.5	-1.4%	-15.1%
CCC(=NCCC1=CCCCC1)c1c(O)[nH]c(=O)[nH]c1=O	-25.1%	-5.8	-0.6%	13.8%
CCCOc1ccc(C(C)=O)cc1Cc1c(O)[nH]c(=S)[nH]c1=O	-9.6%	/	-0.4%	-1.3%
O=C(CCC(=O)N1C[C@H]2C[C@@H](C1)c1cccc(=O)n1C2)NCc1cccc(C(F)(F)F)c1	1.1%	/	1.0%	2.3%
O=C(COc1ccccc1)N1CCN(C/C=C/c2ccccc2)CC1	-2.4%	-1.0	0.6%	0.0%
COc1ccccc1OCC(=O)N1CCCC(N(C)Cc2ccccc2)C1 (stereo not drawn)	-4.2%	/	-4.5%	18.9%
COCCn1cc(C(=O)N2CCC3(CC2)OCCO3)c2c3ccccc3n(C)c2c1=O	-1.8%	-2.8	-2.4%	0.3%
Cc1c(C)n(O)c2ccc3nonc3c12	-6.0%	-1.4	?	?
O=C(COc1ccc2ccccc2c1)N1CCN(Cc2c[nH]c3ccccc23)CC1	-2.6%	-6.7	-2.1%	18.8%
O=C(NC(=S)N1C[C@H]2C[C@H](C1)c1cccc(=O)n1C2)c1ccc(F)cc1	-4.7%	/	-0.1%	-4.8%
Cc1cccc(N2C(=O)NC(=O)/C(=C\c3ccc(N4CCOCC4)cc3)C2=O)c1	-3.5%	5.6	0.2%	16.7%
O=C(CCN1CCCCC1)NCC(=O)Nc1ccc(Br)cc1C(=O)c1ccccc1	-0.3%	3.5	0.0%	0.9%
O=C(Oc1ccc(Cl)c2cccnc12)N1CCCCCC1	-48.8%	-21.5	-1.5%	2.8%
C#CCN1C(=O)C2(C(C#N)=C(N)OC(C)=C2C(=O)OCc2ccccc2)c2ccccc21 (stereo not drawn)	-6.6%	10.2	-4.0%	3.3%
O=C(OCCN1CCOCC1)C1(c2ccccc2)CCCC1	-0.1%	5.9	-1.5%	8.8%
C=CCn1c(O)c(N=Nc2c(C)n(C)n(-c3ccccc3)c2=O)c(=O)[nH]c1=S	5.4%	-12.1	?	?
O=C(O)C1(c2ccc(Cl)cc2)CCC1	-7.5%	-2.0	-0.6%	3.2%
COC(=O)C1=C(c2ccc(F)cc2F)C[C@@H]2CC[C@H]1N2C(=O)NCCOc1ccccc1	/	/	-2.3%	-15.9%
CCn1cc(C(=O)NCc2ccccc2)c2ccccc21	-11.8%	-3.2	-1.2%	25.5%
CCSC1=NN1c1cc(C)nc(N)n1	3.6%	-8.4	-3.2%	13.6%
O=C(CF)NC(NC(=S)Nc1cccc([N+](=O)[O-])c1)C(Cl)(Cl)Cl (stereo not drawn)	12.6%	0.7	6.6%	-10.2%
CCC(=NCc1ccco1)c1c(O)n(Cc2ccccc2)c(=O)[nH]c1=O	-3.9%	-7.5	-1.9%	-21.8%
C[C@@H]1C(=O)O[C@H]2C[C@@]34[C@H]5C[C@@H](C(C)(C)C)[C@]36[C@@H](OC(=O)[C@@H]6O)O[C@@]4(C(=O)O5)[C@]21O	-1.1%	/	-3.7%	10.0%
CN1CCC2(CC1)N=C(c1ccc(F)cc1)C(=S)N2	-6.9%	-2.4	0.5%	6.3%
C=CCc1cc(C=C2C(=O)NC(=O)NC2=O)cc(OC)c1OCc1ccc(C(=O)O)cc1	-2.2%	-8.1	1.6%	-9.1%
COc1ccc(N2CCN(C(CNC(=O)Oc3ccccc3)c3cccnc3)CC2)cc1 (stereo not drawn)	0.6%	-5.8	-3.8%	0.3%
CCCCCn1c(=O)c(C(=O)NCc2ccncc2)c(O)c2ccccc21	23.6%	7.0	-2.5%	2.2%
Cn1c(=O)oc2cc(NC(=O)CCl)ccc21	?	7.2	-0.1%	0.9%
